GALR2 agonist: GALR2 (human) receptor agonism; GALR2-expressing cells, agonist activation read-out; activation, %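 (tested at 5 µM)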; 140,000 tested, 0.48% active; AID 803;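 active means above mean plus 3 SD of all compounds, about 5% in these data, not always enough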;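 further: 0% = vehicle buffer wells and 100% = reference agonist at full effect; tested in CHO reporter cells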
Target sequence (O43603 whole entry, looked up): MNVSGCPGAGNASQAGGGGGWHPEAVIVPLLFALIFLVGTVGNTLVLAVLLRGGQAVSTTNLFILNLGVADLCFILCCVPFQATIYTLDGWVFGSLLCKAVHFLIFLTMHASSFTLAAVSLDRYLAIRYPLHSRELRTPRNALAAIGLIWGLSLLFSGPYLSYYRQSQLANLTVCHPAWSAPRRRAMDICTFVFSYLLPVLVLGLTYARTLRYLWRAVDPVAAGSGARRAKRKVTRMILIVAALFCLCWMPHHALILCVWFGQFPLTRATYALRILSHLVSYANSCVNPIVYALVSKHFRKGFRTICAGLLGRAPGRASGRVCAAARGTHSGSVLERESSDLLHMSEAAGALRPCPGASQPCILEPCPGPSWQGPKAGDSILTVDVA
PKD1 kinase inh: blocks activity of human protein kinase D1. inhibition, %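 (about 10 µM by stock and volumes)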. PKD1 kinase fluorescence polarization assay. 200,000 tested, 0.056% active;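 active means inhibition of 50% or more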;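 further: controls were vehicle for no effect and a reference inhibitor for full effect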
RGS16-Gao: modulates binding between human RGS16 and Galphao. O15492+P09471. bead-based flow cytometry RGS16-Galphao binding, fluorescence; actives lie on both sides. binding response (% of control), % at 10 µM. 220,000 tested, 0.38% active;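 active means below 25% or above 175%, edge rows of some plates excepted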;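 further: Galphao activated by GDP with aluminum fluoride before binding; 100% = wells without compound and 0% = beads without RGS; some results beyond the cut were filed as inactive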
Target sequence (O15492 whole entry, looked up): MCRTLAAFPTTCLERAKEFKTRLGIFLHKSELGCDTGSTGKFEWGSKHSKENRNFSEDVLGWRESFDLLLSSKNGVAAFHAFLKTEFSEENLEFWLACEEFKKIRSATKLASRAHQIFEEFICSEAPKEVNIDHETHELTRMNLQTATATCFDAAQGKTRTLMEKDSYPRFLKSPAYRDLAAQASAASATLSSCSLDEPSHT
Target sequence (P09471 whole entry, looked up): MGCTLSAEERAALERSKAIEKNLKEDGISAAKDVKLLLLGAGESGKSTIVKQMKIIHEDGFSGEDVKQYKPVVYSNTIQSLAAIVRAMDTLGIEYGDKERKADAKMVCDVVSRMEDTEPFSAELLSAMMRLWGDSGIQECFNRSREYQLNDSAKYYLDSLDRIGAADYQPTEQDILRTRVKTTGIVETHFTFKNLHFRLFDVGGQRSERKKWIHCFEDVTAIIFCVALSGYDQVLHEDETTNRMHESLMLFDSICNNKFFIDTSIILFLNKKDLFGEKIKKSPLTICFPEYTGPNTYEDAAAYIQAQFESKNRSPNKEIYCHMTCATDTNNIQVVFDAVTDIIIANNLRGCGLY
INS promoter inh: TRM-6 insulin promoter activity inhibition; 130,000 tested, 0.9% active; inhibition, % at 2 µM; AID 1273; TRM-6 cells (human fetal islet line), insulin promoter-eGFP reporter, imaging; reporter expression induced with tamoxifen;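 active means inhibition above the mean plus 3 SD, with well images judged a real hit on visual review, cut at about 60% in these data, passing the limit was not always enough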
HSV augment: HSV replication enhancement; maximum fold increase; AID 1956; 220,000 tested, 0.005% active; HSV replication augmentation in cells, fold increase;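 active means peak rise of 1.5-fold or more in the series; tested in PC3 cells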;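 further: first round at 10 µM; read as green reporter fluorescence; hits show the peak of a series up to 25 µM; 1 = signal of infected wells without compound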
INS promoter inh cell count: second read-out of INS promoter inh, no call of its own (marks repeat the call); normalized cell count, %; measured here: cell count, toxicity; reference of the scale not given here;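 cells exposed to compound for 48 h; stained nuclei by imaging scaled within each plate; lower means fewer cells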
HSV augment primary fold: also measured in HSV augment; calls as there; fold increase; compound at 10 µM; measured here: primary screen fold increase 10 uM; tested in PC3 cells;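 GFP signal in the first replicate; 1 = infected wells without compound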
An asterisk follows results filed as active; i = inactive; / = no result given.

entry	molecule	GALR2 agonist	PKD1 kinase inh	RGS16-Gao	INS promoter inh	INS promoter inh cell count	HSV augment	HSV augment primary fold
1	Cc1nc2c(ccc3nc(NC(=O)C(c4ccccc4)c4ccccc4)sc32)s1	-0.7	-11.8	116.3	36.6	134.8	i	0.81
2	CCCc1cc(-c2nc(-c3ccc(Cl)cc3)cs2)ccn1	-2.3	-9.4	86.8	/	/	i	1.08
3	C(=N\n1cnnc1)/c1ccc(OCc2ccccc2)cc1	0.4	-4.8	130.8	30.3	62.3	i	0.91
4	Cc1oc2ccc(NS(=O)(=O)c3cccc4cccnc34)cc2c1C(=O)OC(C)C	0.8	-6.6	104.5	/	/	i	0.94
5	CCCCCCCCn1c(N2CCN(c3cccc(Cl)c3)CC2)nc2c1c(=O)[nH]c(=O)n2C	-2.9	-1.3	97.9	-27.8	30.5	i	0.89
6	Cc1ccc2ncnc(Oc3ncccc3[N+](=O)[O-])c2c1	/	/	101.7	/	/	i	0.77
7	COc1ccccc1C1C(C#N)=C(N)Oc2cc(C)n(Cc3ccccn3)c(=O)c21 (configuration not stated)	-0.6	-4.0	129.3	-48.3	62.4	i	0.93
8	COc1ccc(CCN=C(NS(=O)(=O)c2ccc(Cl)cc2)c2ccccc2)cc1	/	5.4	105.8	/	/	i	1.02
9	O=C(CC(=O)N/N=C/c1ccc(F)cc1)N/N=C/c1ccc(F)cc1	/	/	97.5	/	/	i	0.99
10	O=C(Nc1cccc(Cl)c1)Nn1cnnc1	/	/	104.9	/	/	i	0.92
11	O=S(=O)(c1ccccc1Cl)N1CCC(O)(c2cccnc2)CC1	/	1.0	87.9	/	/	i	1.03
12	O=C1c2ccccc2-c2nnc(-c3ccc(F)cc3)cc21	/	-2.5	101.7	0.0	142.3	i	0.99
13	NC(=O)CN1CCN(c2nc(-c3ccc(F)cc3)cs2)CC1	-3.6	-5.8	99.2	-33.3	77.2	i	1.06
14	COc1ccc(CC(=O)Nc2cccc(-c3ccc4nncn4n3)c2)cc1OC	/	-3.4	98.4	/	/	i	0.77
15	CCOC(=O)CNC(=O)CNC(=O)c1nn(-c2ccc(OC)c(Cl)c2)c(=O)c2ccccc12	/	0.8	93.8	12.5	110.5	i	0.9
16	CCN(CC)C(=O)CNC(=S)N(CCCN1CCOCC1)Cc1cccs1	-1.1	-0.4	115.8	3.3	65.6	i	1.07
17	COc1ccc(OC(=O)CCc2c[nH]c3ccccc23)cc1	/	0.9	96.5	/	/	i	0.75
18	COc1ccc(C(=O)NC(C(=O)NCC(=O)Nc2c(C)cccc2C)C(C)C)cc1 (configuration not stated)	-0.1	-4.2	104.9	-29.7	87.4	i	0.97
19	O=c1cc(-c2ccc(O)cc2)oc2ccc(O)cc12	/	19.0	115.8	-42.9	96.4	i	0.94
20	Oc1ccccc1Nc1nc(NCc2ccccc2)c2ccccc2n1	/	-5.0	99.2	/	/	i	0.59
21	O=C(NC(Cc1ccccc1)C(=O)O)/C(=C/c1ccccc1)NC(=O)c1ccccc1 (configuration not stated)	-0.9	-6.7	101.4	/	/	i	0.83
22	Cc1noc(NS(=O)(=O)c2ccc(N/C=C/C(=O)c3ccc4c(c3)OCO4)cc2)c1C	-1.1	-7.0	100.9	33.3	93.8	i	0.88
23	COc1ccccc1NC(=O)Cc1cccs1	-1.6	-13.6	100.7	10.0	110.4	i	0.87
24	N/C(=N\OC(=O)/C=C/c1ccccc1Cl)c1ccncc1	/	1.5	100.4	14.3	102.4	i	0.91
25	CCOC(=O)C1=NNC(C(=O)c2ccc(OC)cc2)C1c1ccccc1 (configuration not stated)	-0.5	-6.9	99.1	-15.6	113.4	i	1.05
26	CC(Sc1nnc(Cc2cccs2)n1C1CCCCC1)C(=O)NCc1ccco1 (configuration not stated)	-1.7	10.1	104.2	-31.2	79.2	i	0.977
27	N#C/C(=C\c1cn[nH]c1-c1ccc(Cl)cc1)C(=O)NC1CC1	0.2	8.3	94.0	79.3*	125.3*	i	0.86
28	CC(C)(C)n1nc2c(c1NC(=O)c1cccs1)CS(=O)C2 (configuration not stated)	-4.8	-5.8	97.8	-330.0	54.3	i	1.09
29	CCN(c1ccc(NC(=O)CSc2nnc3nc(C)cc(C)n23)cc1)C(C)C	-3.1	-8.0	95.0	9.4	77.6	i	0.85
30	Nc1nc(-c2cccnc2)nn1C(=O)COc1ccccc1	-0.7	8.7	99.3	-72.4	83.5	i	0.89

Whole records as entered above:
`CC(C)(C)n1nc2c(c1NC(=O)c1cccs1)CS(=O)C2` (configuration not stated) is entered as GALR2 agonist = -4.8; PKD1 kinase inh = -5.8; RGS16-Gao = 97.8; INS promoter inh = -330.0; INS promoter inh cell count = 54.3; HSV augment = i; HSV augment primary fold = 1.09
`CCN(c1ccc(NC(=O)CSc2nnc3nc(C)cc(C)n23)cc1)C(C)C` is entered as GALR2 agonist = -3.1; PKD1 kinase inh = -8.0; RGS16-Gao = 95.0; INS promoter inh = 9.4; INS promoter inh cell count = 77.6; HSV augment = i; HSV augment primary fold = 0.85

Next compounds follow:
entry	molecule	GALR2 agonist	PKD1 kinase inh	RGS16-Gao	INS promoter inh	INS promoter inh cell count	HSV augment	HSV augment primary fold
31	O=C(CS(=O)(=O)Cc1ccccc1)Nc1ncccn1	-2.1	-2.0	95.2	-354.6	0.4	i	1.07
32	COc1cc(S(=O)(=O)N(C)C)ccc1F	-0.8	-11.2	101.0	40.0	140.5	i	1.11
33	COc1ccc(C2=NOC(C(=O)NCc3cccs3)C2)cc1OC (configuration not stated)	-0.5	0.1	106.1	/	/	i	0.71
34	CC(=O)c1ccc(N2CCN(C(=O)c3ccc(OCc4c(C)noc4C)cc3)CC2)cc1	-2.4	-9.4	97.6	/	/	i	0.86
35	CCOc1ccc(NC(=S)Nc2cc(-c3ccccc3)[nH]n2)cc1	1.4	5.2	96.0	31.1	61.4	i	1.04
36	CCCC(OC(=O)CN1C(=O)COc2ccccc21)C(=O)NC1CCCC1 (configuration not stated)	0.8	-4.4	102.7	/	/	/	/
37	CCOC(Cn1cc(C)c(=O)[nH]c1=O)OCC	/	-4.6	106.9	-8.3	63.8	i	0.98
38	O=C(c1ccccc1)n1ccc(-c2cnc(-c3ccccc3)s2)n1	0.3	-4.4	78.0	-16.7	114.6	i	1.05
39	O=C(O)CCC(=O)Nc1ccccc1C(=O)NC1CCCCC1	-3.5	0.9	102.9	-36.4	82.8	i	0.91
40	CCn1c(SCC(=O)NCCc2ccccc2)nc2c(c1=O)SC(C)C2 (configuration not stated)	-1.8	-12.3	102.7	/	/	i	0.9
41	CNC(=S)NNC(=O)COc1cccc(C)c1C	-1.2	12.5	105.4	/	/	i	1.04
42	O=[N+]([O-])c1ccccc1/C=C/C=N/N1CCCCC1	/	3.5	88.0	/	/	i	0.94
43	CSCCNC(=O)c1ccc(C(C)(C)C)cc1	-1.9	-3.8	105.5	0.0	115.2	i	0.957
44	COc1ccc(C(=O)NNC(=O)c2cc3cc(OC)ccc3oc2=O)cc1	/	/	97.3	/	/	i	1.25
45	Cc1ccc(S(=O)(=O)NC(C)C(c2cccs2)N2CCOCC2)cc1 (configuration not stated)	-1.4	4.2	/	-14.3	81.1	i	0.82
46	Cc1ccccc1CC1(CO)CCCN(C(=O)c2cc(Cl)ccc2F)C1 (configuration not stated)	/	-2.1	99.0	/	/	i	1.04
47	CCOC(=O)/N=C(/NC(=O)Nc1ccc(C(=O)OCC)cc1)OC	-0.6	-7.7	97.3	7.9	184.8	i	0.96
48	COc1ccc2c(c1)c1ncn(CCN3CCCCC3)c(=O)c1n2C	-1.8	-4.7	93.4	-466.7	47.3	i	1.01
49	CC(C)n1cc(/C(N)=N/O)c(=O)n(Cc2ccccc2)c1=O	/	/	101.6	/	/	i	1.07
50	CC#CC[N+](C)(C)CC(=O)c1ccccc1	/	/	107.2	/	/	i	0.86

No new results follow: entries from further up.
entry	molecule	GALR2 agonist	PKD1 kinase inh	RGS16-Gao	INS promoter inh	INS promoter inh cell count	HSV augment	HSV augment primary fold
46	Cc1ccccc1CC1(CO)CCCN(C(=O)c2cc(Cl)ccc2F)C1 (configuration not stated)	/	-2.1	99.0	/	/	i	1.04
47	CCOC(=O)/N=C(/NC(=O)Nc1ccc(C(=O)OCC)cc1)OC	-0.6	-7.7	97.3	7.9	184.8	i	0.96
48	COc1ccc2c(c1)c1ncn(CCN3CCCCC3)c(=O)c1n2C	-1.8	-4.7	93.4	-466.7	47.3	i	1.01
49	CC(C)n1cc(/C(N)=N/O)c(=O)n(Cc2ccccc2)c1=O	/	/	101.6	/	/	i	1.07
50	CC#CC[N+](C)(C)CC(=O)c1ccccc1	/	/	107.2	/	/	i	0.86

(continued)
entry	molecule	GALR2 agonist	PKD1 kinase inh	RGS16-Gao	INS promoter inh	INS promoter inh cell count	HSV augment	HSV augment primary fold
51	COc1ccc(N2CCC(CNC(=O)Nc3cccc(OC)c3)C2)cc1 (configuration not stated)	0.1	-6.9	85.2	32.3	153.7	i	0.88
52	CC(C)Nc1nc(-c2ccncc2)nc(-c2ccc(Cl)cc2)c1C#N	/	3.4	103.4	/	/	i	1.04
53	CC1=NN(c2nc(-c3ccc(C)cc3)cs2)C(=O)C1N=Nc1ccc(C(N)=O)cc1 (configuration not stated)	/	7.0	119.6	-18.2	19.2	i	0.53
54	Cc1noc(C)c1C(=O)N1CCN(c2ccc(OCc3ccccc3)cc2)CC1	/	/	101.4	/	/	i	1.02
55	Cc1cc(N2CCC(C)CC2)n2ncc(-c3ccccc3)c2n1	-0.5	-17.6	99.8	-26.7	102.9	i	0.9
56	COC(=O)c1c(C)[nH]c(C(=O)C(C)Sc2nnc(-c3cc(OC)c(OC)c(OC)c3)o2)c1C (configuration not stated)	-1.6	0.8	102.2	/	/	i	0.973
57	O=C1C(C2=NC(c3ccccn3)C3C(=O)N(c4ccccc4)C(=O)C23)=C(O)c2ccccc21 (configuration not stated)	/	/	95.1	/	/	i	0.88
58	Cc1n[nH]c(=O)nc1NCC1CCCO1 (configuration not stated)	-2.7	-11.5	97.7	-6.1	70.8	i	0.96
59	Cc1ccc2nc(-c3ccc(N4C(=O)CC(N5CCC(C(N)=O)CC5)C4=O)cc3)sc2c1 (configuration not stated)	1.2	5.7	93.1	/	/	i	0.93
60	CN(CC(O)COc1ccccc1F)C1CCCCC1 (configuration not stated)	/	1.8	99.9	0.0	108.9	i	1.17
61	CCOC(=O)c1sc(=S)n(-c2cccc(OC)c2)c1N	-3.7	-9.0	66.5	-18.8	173.2	i	1
62	CC(NC(=O)CCCCCN1C(=O)c2ccccc2C1=O)c1ccc2c(c1)CCCC2 (configuration not stated)	-1.9	-3.6	102.4	9.4	105.7	i	0.89
63	CCn1c(CNC(=O)c2ccccc2F)nnc1SCc1nc2ccccc2c(=O)[nH]1	/	-2.6	106.6	/	/	i	0.91
64	O=C(CNC(=O)Cn1ccc2ccccc2c1=O)NCCCN1CCN(c2cccc(Cl)c2)CC1	-1.2	-4.1	122.9	2.6	96.9	i	0.89
65	CN1C=CC(=CC=C2C=CC(=O)C=C2)C=C1	/	/	112.9	/	/	i	1.11
66	C=CCn1c(SCC(=O)Nc2ccc(-c3nc4ccc(C)cc4s3)cc2)nnc1-c1ccncc1	0.1	-11.9	103.6	-32.4	61.1	i	0.92
67	COc1cccc(C2C3=C(CC(C)(C)CC3=O)Nc3n[nH]c(C)c32)c1 (configuration not stated)	/	-4.5	98.6	/	/	i	0.93
68	N#Cc1c(NC(=O)C2CC(c3ccccc3Cl)=NO2)sc2c1CCC2 (configuration not stated)	-2.4	-9.2	101.2	/	/	i	0.79
69	Cc1cccc(NC(=S)NCCN2CCOCC2)c1	-0.6	-1.9	101.2	/	/	i	1.09
70	O=C(O)c1ccccc1-n1c2ccccc2c2ccccc21	/	/	103.7	/	/	i	1.08
71	CC1CC(C)CN(Cc2nc(N)nc(Nc3ccccc3)n2)C1 (configuration not stated)	-3.6	-9.2	137.7	-8.1	210.8	i	1.02

Bioassay records (PubChem BioAssay)
